Compound activity from PubChem.
Arbovirus anti = antivirals against arbovirus infection; arbovirus infection cell-based antiviral screen; inhibition, % at 10 µM; hit rate 0.37% among 200,000; AID 1251;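 active means inhibition from about 30%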;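 further: bluetongue infection of BSR cells; cell survival read as ATP light after 72 h; 0% = infected wells without compound and 100% = uninfected wells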
Mtb betalactam = beta-lactam sensitization of Mtb H37Rv; M. tuberculosis H37Rv growth with meropenem, percent inhibition; hits of this screen are not shown here; inhibition, % at 25 µM; hit rate 0.27% among 330,000; AID 434955;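 active means about 74% or more and at least 40 points above the plate without the antibiotic, then above 30% in a dose series; inconclusive means first-round hits that could not be retested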;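 further: growth measured after seven days incubation then overnight dye step; 0% = bacteria only wells and 100% = bacteria with antibiotic; twin plates without the antibiotic show which effects depend on it; some results filed as inactive read as strong as hits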
RecA splice inh = blocks M. tuberculosis RecA intein splicing; cell-free RecA intein splicing, fluorescence; inhibition, %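 (about 9 µM by stock and volumes)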; hit rate 0.75% among 290,000; AID 2221; in the data active means inhibition above about 30%; inconclusive means no clear call, values can overlap the other calls;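 further: 0% = vehicle wells and 100% = reference inhibitor control wells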
Target sequence (P9WHJ3 whole entry, looked up, canonical isoform): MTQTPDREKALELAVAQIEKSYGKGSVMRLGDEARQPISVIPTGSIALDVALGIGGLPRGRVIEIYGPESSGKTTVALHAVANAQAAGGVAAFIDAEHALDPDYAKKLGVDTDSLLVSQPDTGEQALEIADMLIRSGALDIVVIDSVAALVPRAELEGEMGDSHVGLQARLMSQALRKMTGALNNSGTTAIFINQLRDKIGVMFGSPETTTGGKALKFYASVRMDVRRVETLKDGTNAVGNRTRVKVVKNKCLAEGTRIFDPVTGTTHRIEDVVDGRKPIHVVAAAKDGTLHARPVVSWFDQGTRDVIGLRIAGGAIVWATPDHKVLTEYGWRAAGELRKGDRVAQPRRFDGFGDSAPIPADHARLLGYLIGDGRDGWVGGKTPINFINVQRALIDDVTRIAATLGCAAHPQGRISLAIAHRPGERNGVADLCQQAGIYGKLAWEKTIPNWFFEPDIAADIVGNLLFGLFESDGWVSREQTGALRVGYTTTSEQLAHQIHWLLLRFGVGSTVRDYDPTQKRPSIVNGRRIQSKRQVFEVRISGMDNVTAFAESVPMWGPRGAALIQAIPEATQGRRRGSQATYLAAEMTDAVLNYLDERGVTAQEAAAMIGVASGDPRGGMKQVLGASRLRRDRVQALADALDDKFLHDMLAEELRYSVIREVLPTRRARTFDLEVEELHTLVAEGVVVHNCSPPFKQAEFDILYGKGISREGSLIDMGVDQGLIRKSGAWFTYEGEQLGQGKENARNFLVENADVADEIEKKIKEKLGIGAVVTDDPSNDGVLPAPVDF
YopH PTP inh = blocks Yersinia enterocolitica YopH tyrosine phosphatase. AID 898. fluorescence Ex485/Em525. hit rate 0.16% among 140,000. inhibition, %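 (about 10 µM by stock and volumes)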;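 active means inhibition of 50% or more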;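 further: controls were vehicle for no effect and minimum signal wells for full effect; inactives centre near -20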
Mtb growth = M. tuberculosis H37Rv growth inhibitors, H37Rv strain (AID 1626) | M. tuberculosis H37Rv growth inhibition; higher % means a stronger effect | inhibition, % at 10 µM; hits with a dose series show IC50 in µM | hit rate 0.95% among 220,000;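 active means confirmed in a dose series; inconclusive means inhibition above 80% but not taken into the dose series; inactive means below 80% or under 30% at every dose of the series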;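 further: bacteria incubated seven days before Alamar blue readout; 0% = bacteria only wells and 100% = bacteria with antibiotic wells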
Arbovirus anti repeat = further read-out of Arbovirus anti, marked with its call; inhibition, %; measured here: 10K subset replicate screen; many hits read low in the repeat;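 first of two repeat runs on a subset; 0% = infected and 100% = uninfected wells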
* = called active by the depositor; ? = inconclusive; . = no result given. An excerpt. The share of hits here may be higher or lower than overall.

SMILES	Arbovirus anti	Mtb betalactam	RecA splice inh	YopH PTP inh	Mtb growth	others
CCCCOc1ccc(Cl)cc1CSc1n[nH]c(C)n1	2	4	.	1	-5%
CCN1CCCC1CNCC(=O)Nc1ccc(OC(F)(F)F)cc1 (stereo not given)	.	2	0.6	.	-1%
CC1CCN(c2nc3ccc(C(=O)NCCCN4CCCCC4C)cc3s2)CC1 (stereo not given)	.	-9	-0.5	.	.
COc1ccc(CC(=O)OCn2nnc3ccccc3c2=O)cc1OC	.	-4	0.1	.	-1%
CC(C)(CO)NC(=O)C(c1ccccc1)c1ccccc1	-4	8	-1.1	-5	-7%
CCC(C)(C)C1CCC(=NNS(=O)(=O)c2ccc(C)c([N+](=O)[O-])c2)CC1 (stereo not given)	-18	1	0.9	-19	-2%
c1ccc(Cn2ncc3c(N4CCCCC4)ncnc32)cc1	-8	-6	1.9	-16	-6%	Arbovirus anti repeat=-8
CCCCC(=O)Nc1nc2c(s1)COc1ccccc1-2	.	1	3.8	.	.
COc1ccc(NC(=O)CN2CCN(S(=O)(=O)c3ccc(C(C)C)cc3)CC2)cc1OC	14	47	1.5	-42	8%
CNNC(=S)NC1CC2CC1C1C=CCC21 (stereo not given)	.	12	.	.	9%
CCC(C)NC(=O)Cn1c(=O)n(CCCCCC(=O)Nc2ccccc2)c(=O)c2sccc21 (stereo not given)	-7	3	-6.7	-26	2%
Cc1nn(CC(=O)OCC(=O)Nc2ccccc2[N+](=O)[O-])c(C)c1[N+](=O)[O-]	-2	0	0.5	-15	5%
Cc1nn(-c2ccccc2)c2sc(-c3n[nH]c(=S)o3)cc12	-15	-5	2.0	-31	-3%
CCOc1ccc(C(=O)Nc2nnc(SCC(=O)NCC3CCCO3)s2)cc1OCC (stereo not given)	.	-9	1.8	.	.
Cc1nc(SCC(=O)NCCc2ccc(Cl)cc2)nc(C)c1C	0	10	1.4	-27	-4%
CN(C)c1cccc(C(=O)Nc2cc(C(F)(F)F)ccc2-n2cnc3ccccc32)c1	0	-2	1.3	-17	7%
O=C(/C=C/c1ccc(Cl)cc1Cl)NC(=S)Nc1ccccn1	-2	2	11	-25	13%
CC1CCC2C(C1)OS(=O)(=O)NC2(C)C (stereo not given)	.	-4	1.0	.	.
CCCn1nc2cc(C(=O)NC3CCCc4ccccc43)ccc2c1OCC (stereo not given)	1	4	5.4	6	-5%
OCCCNc1ncnc2c1[nH]c1ccccc12	.	-9	-4.3	.	-6%
COc1ccc(OC)c(C2=Nn3c(nnc3C3CCCCC3)SC2)c1	-23	0	4.5	6	7%
COc1ccc(C2N(c3ccc(OC)cc3)C(=O)C3CCCN32)cc1 (stereo not given)	7	-7	2.8	-1	-11%	Arbovirus anti repeat=9
CC(c1ccccc1)N(NC(=O)C(O)(c1ccccc1)c1ccccc1)C(=O)c1ccccc1 (stereo not given)	-10	4	3.6	-33	-2%
O=C(CCl)NCc1c(Cl)cccc1-n1cccc1	-3	98	46*	2	-4%
CN(C)S(=O)(=O)c1cccc(NC(=O)CCCC2CCCCC2)c1	.	-7	13	.	.
Further structures follow:
SMILES	Arbovirus anti	Mtb betalactam	RecA splice inh	YopH PTP inh	Mtb growth	others
Cc1ccc(S(=O)(=O)N(C)C)cc1NC(=O)c1cccs1	.	-1	0.5	.	1%
CCOC(=O)C(O)(c1ccc(NC(=O)Oc2ccccc2)cc1)C(F)(F)F (stereo not given)	-4	-2	2.7	-19	-1%
O=S(=O)(NCC(c1cccnc1)N1CCN(Cc2ccccc2)CC1)c1cc(F)ccc1F (stereo not given)	.	-8	-1.7	.	.
CCOC(=O)N1CCN(S(=O)(=O)c2cccc3ccc(C)nc23)CC1	2	-4	-0.8	16	-1%
N=C1C(c2nc(-c3cccc([N+](=O)[O-])c3)cs2)=C(O)CN1NC(=O)c1ccco1	0	-1	-2.0	.	6%
COc1cccc(-c2cc(C(=O)Nc3cc(OC)c(OC)c(OC)c3)no2)c1	-13	-2	3.3	28	9%
CCOC(=O)n1c(=O)n(C)c2ccc(Cl)cc21	-1	3	-2.3	.	-2%
O=C(c1ccccc1F)c1cn(CC(=O)N2CCOCC2)c2ccccc12	0	-4	-1.0	-92	-6%
CCOC(=O)c1c(NC(=O)CN2CCCCC2)sc(C)c1C	7	1	6.6	.	7%
COc1cc2c(cc1NC(=O)C(C)Sc1ccc(NC(C)=O)cc1)oc1ccccc12 (stereo not given)	5	4	-1.8	-17	19%
Cc1cc(NC(=O)CCC(=O)N(CC(=O)NCC2CCCO2)c2ccc3c(c2)OCCO3)no1 (stereo not given)	3	-4	0.3	29	-8%
Cc1cc(S(=O)(=O)n2cnc3cc([N+](=O)[O-])ccc32)ccc1Cl	3	-2	6.1	-18	-1%
COc1ccccc1-n1cnc2c(c1=O)c1nc3ccccc3nc1n2CCc1ccccc1	-9	1	0.8	-41	-1%
CCO[C@H]1OC(C(=O)NCc2ccccc2)=C[C@@H](c2ccc3c(c2)OCO3)[C@@H]1CCCO	-10	-3	3.5	.	-9%
CC(=O)Nc1ccc(NC(=O)CCn2nnc3ccccc32)cc1	2	-8	0.9	.	-3%
O=[N+]([O-])/C(C(=C(Cl)Cl)N1CCOCC1)=C1\NCCO1	0	-7	-3.4	.	-6%
Cc1cc(C)n(CC(O)COc2ccc3ccccc3c2)n1 (stereo not given)	-5	8	0.2	.	7%
Cc1cccc(NS(=O)(=O)c2c(C)nc3scc(C)n3c2=O)c1	.	1	1.7	.	.
COC(=O)c1ccc(OCCn2cnc3ccccc3c2=O)cc1	8	-5	-0.2	9	-6%
Clc1ccc(C(c2ccccc2)N2CCNCC2)cc1 (stereo not given)	-38	-2	-0.3	-8	0%
O=C1CN(c2nc(-c3ccccc3)c3cc(Br)ccc3n2)c2ccccc2N1	-2	-4	1.4	-41	.
O=c1cccc2n1Cc1cc3ccccc3nc1-2	-5	-5	-1.4	-32	-8%
O=C(Cc1cccc(C(F)(F)F)c1)NCC(c1ccco1)N1CCCCC1 (stereo not given)	-2	-8	3.5	.	3%
CN(C)c1c(F)cc(-c2nn[nH]n2)cc1F	.	-13	-5.3	.	-12%
CC1CCc2sc(NC(=O)C3CC(Cl)=CCC3C(=O)O)c(C#N)c2C1 (stereo not given)	23	-6	-0.9	.	-2%
Later entries.
SMILES	Arbovirus anti	Mtb betalactam	RecA splice inh	YopH PTP inh	Mtb growth	others
CCOc1cc(CNC2CCCC2)cc(Cl)c1OCc1ccccc1	-37	73	-1.3	-8	19%
COC(=O)c1ccc(CSc2nc3c(c(=O)n2-c2ccccc2)SCC3)o1	-2	1	6.1	-20	7%
COc1ccc(NCC(=O)N/N=C/c2c(C)nn(Cc3ccccc3)c2Cl)cc1	-11	89	3.9	-6	71%
COC(=O)c1c(NC(=O)c2cnccn2)sc2c1CCC2	-3	-1	-0.9	-10	.
N#CC1=C(N)Oc2cc(N)ccc2C1c1cccnc1 (stereo not given)	-7	1	-3.2	-42	-1%
O=C1CC(N2C(=O)/C(=C/C=C/c3ccccc3)SC2=S)C(=O)N1c1ccccc1 (stereo not given)	0	0	0.5	-26	54%
N#CC1(NC(=O)COC(=O)c2cc([N+](=O)[O-])ccc2N2CCOCC2)CCCCC1	.	-11	1.5	.	.
COc1ccc(NC(=O)CN2C(=O)C(c3ccccc3)=NC23CCCCCC3)cc1	-3	5	2.9	-7	.
O=C(c1ccc(-c2cc(Cl)ccc2Cl)o1)N1CCOCC1	-2	-2	6.0	.	-15%
O=C(NCCCn1ccnc1)c1ccc(Br)s1	.	-1	-0.5	.	.
CCOC(=O)C1=C(C)OC(N)=C(C#N)C1c1ccc(C)o1 (stereo not given)	0	7	-4.6	-1	-2%
O=C(CN(C(=O)CNC(=O)c1cccs1)c1cccc(F)c1)NC1CCCCC1	.	9	2.4	.	.
Cc1cc2ccccc2n1CCNC(=O)C1CCCC1	6	9	-0.1	-53	.
O=C(O)CNC(=O)/C(=C\c1ccco1)NC(=O)c1ccco1	.	0	-4.0	.	.
Cc1c(Cl)cccc1NC(=O)CC1Oc2ccccc2NC1=O (stereo not given)	.	4	-0.5	.	.
Cc1ccc(C(=O)Nc2ccc(C(=O)NCC3CCCO3)cc2)cc1 (stereo not given)	.	-1	-0.4	.	.
CCCC/C(O)=C1\C(=O)CC(C)(C)CC1=NCCCCCC(=O)O	22	0	-4.7	.	7%
COc1ccc(CN(C(=O)Cc2c[nH]c3ccccc23)C(C(=O)NC2CCCCC2)c2ccc(C)o2)cc1 (stereo not given)	-25	-3	16	-12	5%
CCOc1ccccc1N1CN(CC)CNC1=S	2	7	-0.3	-30	-1%
C/C(=N\NC(=O)c1nnn(-c2nonc2N)c1CN(C)c1ccccc1)c1cccnc1	.	13	-0.4	.	.
COc1ccc(OCC(=O)Nc2ccc(NC(=O)c3ccco3)cc2)cc1	3	-9	4.9	-32	8%
O=C(c1cccc(F)c1)N1CCC(N2CCCCCC2)CC1	4	-6	-1.6	-7	0%
COc1ccc(NC(=O)CN(c2ccc(F)cc2)S(=O)(=O)c2ccccc2)c(OC)c1	.	4	4.7	.	.
Fc1ccccc1NC(=S)NCCc1cccc(Cl)c1	.	-1	0.2	.	.
C=CC(C)n1c(Br)nc2c1c(=O)[nH]c(=O)n2C (stereo not given)	1	0	-1.0	-22	-1%

Structural class, those above with two or more sulfur atoms (6)
SMILES	Arbovirus anti	Mtb betalactam	RecA splice inh	YopH PTP inh	Mtb growth	others
Cc1nn(-c2ccccc2)c2sc(-c3n[nH]c(=S)o3)cc12	-15	-5	2.0	-31	-3%
CCOc1ccc(C(=O)Nc2nnc(SCC(=O)NCC3CCCO3)s2)cc1OCC (stereo not given)	.	-9	1.8	.	.
Cc1ccc(S(=O)(=O)N(C)C)cc1NC(=O)c1cccs1	.	-1	0.5	.	1%
Cc1cccc(NS(=O)(=O)c2c(C)nc3scc(C)n3c2=O)c1	.	1	1.7	.	.
COC(=O)c1ccc(CSc2nc3c(c(=O)n2-c2ccccc2)SCC3)o1	-2	1	6.1	-20	7%
O=C1CC(N2C(=O)/C(=C/C=C/c3ccccc3)SC2=S)C(=O)N1c1ccccc1 (stereo not given)	0	0	0.5	-26	54%

(more compounds)
SMILES	Arbovirus anti	Mtb betalactam	RecA splice inh	YopH PTP inh	Mtb growth	others
CCN1C(=O)/C(=C\N2CCCc3ccccc32)SC1=S	-2	2	-1.6	-46	7%
CCOc1cccc(-c2c(C(=O)N/N=C(\C)c3cccnc3)nnn2-c2nonc2N)c1	.	1	-0.1	.	.
O=C(Nc1ccc2c(c1)OCO2)C1CCCN(S(=O)(=O)Cc2ccccc2)C1 (stereo not given)	1	-2	0.2	-22	-8%
CC(=O)Nc1ccc(S(=O)(=O)NCc2ccc(C)n2C)cc1	.	-2	-0.6	.	.
NC(=O)c1c(N)sc(=S)n1-c1ccccc1	12	-12	-3.0	-33	-11%
Cc1ccc(/C=N\NC(=O)COc2ccc(C)cc2[N+](=O)[O-])cc1	-6	-1	1.3	.	-8%
Cc1ccc(C(=O)Oc2cc(-c3ccccc3)no2)cc1	1	-7	0.1	-32	4%
CCOC(=O)/C(=C/c1c(C)n(C)c2ccc([N+](=O)[O-])cc12)C(C)=O	9	-3	-1.6	-37	6%
Cc1ccc(CCNC(=O)C2CCCN(c3nc4ccccc4o3)C2)cc1 (stereo not given)	10	-2	-0.9	-33	1%
COc1ccc(-c2nnc3sc(CN4C(=O)c5ccccc5C4=O)nn23)cc1	.	-5	2.0	.	7%
NS(=O)(=O)c1cccc(NC(=O)Cc2ccc(Cl)c(Cl)c2)c1	13	-18	-0.4	.	-3%
COc1ccc(CCN(CC(=O)NC2CCCC2)C(=O)CCC(=O)Nc2cc(C)on2)cc1OC	3	-8	-2.4	-16	.
O=C(COc1ccc2ccccc2c1)N1CCCC1	17	5	1.5	7	-14%	Arbovirus anti repeat=3
COc1cc(OC)c(CN2CCN(c3ccc(F)cc3)CC2)cc1Br	-3	3	3.2	-36	5%
CCN1/C(=C\c2ccc3cc(C)ccc3[n+]2CC)Sc2cc(C)c(C)cc21	-35	.	1.3	.	?
Cc1cccc(C)c1OC(=O)CN1C(=O)c2ccccc2C1=O	.	3	-0.7	.	.
COc1ccc(CNC(=O)COc2ccc(C(=O)c3ccc(F)cc3)cc2)cc1	-3	2	1.8	-17	8%
CSc1cccc(NC(=O)CNS(=O)(=O)c2ccccc2)c1	.	-6	-0.2	.	.
NC(=O)CSc1nc2ccccc2n1Cc1ccccc1F	2	0	2.5	-17	0%

4 neighbouring records already listed, for reference:
SMILES	Arbovirus anti	Mtb betalactam	RecA splice inh	YopH PTP inh	Mtb growth	others
CCN1C(=O)/C(=C\N2CCCc3ccccc32)SC1=S	-2	2	-1.6	-46	7%
CCOc1cccc(-c2c(C(=O)N/N=C(\C)c3cccnc3)nnn2-c2nonc2N)c1	.	1	-0.1	.	.
O=C(Nc1ccc2c(c1)OCO2)C1CCCN(S(=O)(=O)Cc2ccccc2)C1 (stereo not given)	1	-2	0.2	-22	-8%
CC(=O)Nc1ccc(S(=O)(=O)NCc2ccc(C)n2C)cc1	.	-2	-0.6	.	.
